FGF22 binding: binders of human FGF22 protein, primary screen, FGF22 synaptogenesis inhibitor project, biophysical, thermal shift, single point; recombinant FGF22 thermal shift, SYPRO orange fluorescence; percent of sucrose octasulfate shift, DMSO zero; calls only at 9.99 µM; 340,000 tested, 1.5% active; AID 651658, 2012;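 active means melting point raised past a set limit in the mean and every replicate; inconclusive means no clear call; three in four hits are not shown here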
Target sequence (Q9HCT0 whole entry, looked up): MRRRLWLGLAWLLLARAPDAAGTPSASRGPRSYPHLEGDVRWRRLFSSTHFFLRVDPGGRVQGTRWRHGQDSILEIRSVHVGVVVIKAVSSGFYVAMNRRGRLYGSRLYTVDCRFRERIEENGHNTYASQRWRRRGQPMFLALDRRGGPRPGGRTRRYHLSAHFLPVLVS
Calb FLC: C. albicans growth inhibition with fluconazole, primary screen, CaCi-2 strain, Alamar Blue fluorescence; growth inhibition, % (test concentration not listed); C. albicans CaCi-2 (fluconazole-resistant clinical isolate) + fluconazole, 48 h; AID 1979, 2009; 300,000 tested, 0.57% active;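 active means most replicates above 75%; inconclusive means exactly half above 75%; inactive means most below 75%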;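 further: all wells also contain fluconazole at 8 µg/ml as a sub-toxic cotreatment; 0% = median of DMSO wells and 100% = median of geldanamycin control wells; wells of about 8 µL received 7.5 nL stock; the first replicate is given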
MLL AF4-AF9 inh: inhibitors of AF4 peptide binding to AF9, primary screen, biochemical, AlphaScreen, biotin-AF4 peptide, FLAG-AF9, single point | Protein AF-9 (Homo sapiens), P42568 | inhibition, % at 10 µM | 350,000 tested, 0.47% active | AID 651704, 2012;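 active means every replicate reaching a set inhibition limit, whatever the replicate mean, cut at about 25% in these data; inconclusive means mean inhibition reaches that limit but some replicates miss it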;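 further: 0% = plate neutral control median and 100% = total signal loss; the record names both 10 and 1 µM as test concentration; the first replicate is given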
Target sequence (P42568 whole entry, looked up): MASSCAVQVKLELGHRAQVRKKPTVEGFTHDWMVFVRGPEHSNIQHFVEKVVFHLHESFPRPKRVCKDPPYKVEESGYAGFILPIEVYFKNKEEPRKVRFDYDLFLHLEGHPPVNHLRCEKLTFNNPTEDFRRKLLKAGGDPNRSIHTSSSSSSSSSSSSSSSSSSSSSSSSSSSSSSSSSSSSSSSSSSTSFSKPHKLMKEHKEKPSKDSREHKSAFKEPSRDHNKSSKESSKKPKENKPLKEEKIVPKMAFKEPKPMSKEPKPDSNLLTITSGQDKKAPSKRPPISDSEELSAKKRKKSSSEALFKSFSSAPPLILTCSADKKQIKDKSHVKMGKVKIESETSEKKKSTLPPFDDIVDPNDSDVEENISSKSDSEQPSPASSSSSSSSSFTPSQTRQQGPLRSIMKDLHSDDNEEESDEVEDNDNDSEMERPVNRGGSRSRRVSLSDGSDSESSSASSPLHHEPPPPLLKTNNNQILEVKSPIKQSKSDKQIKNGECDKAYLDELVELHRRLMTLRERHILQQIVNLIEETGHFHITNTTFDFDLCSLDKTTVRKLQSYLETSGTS
ALR inh: inhibitors of human ALR sulfhydryl oxidase, primary screen, biochemical, H2O2 detection, HRP-luminol luminescence, single point. purified ALR, DTT oxidation. inhibition, % (no concentration beside the values). 290,000 tested, 3.8% active. AID 485317, 2010;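 active means mean and each replicate at 75% or more; inconclusive means only one of the two met; inactive means neither met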;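 further: stock transfer was 7.5 nL into about 7.5 µL; 0% = neutral wells and 100% = wells with inactivated enzyme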
Target sequence (P55789 whole entry, looked up): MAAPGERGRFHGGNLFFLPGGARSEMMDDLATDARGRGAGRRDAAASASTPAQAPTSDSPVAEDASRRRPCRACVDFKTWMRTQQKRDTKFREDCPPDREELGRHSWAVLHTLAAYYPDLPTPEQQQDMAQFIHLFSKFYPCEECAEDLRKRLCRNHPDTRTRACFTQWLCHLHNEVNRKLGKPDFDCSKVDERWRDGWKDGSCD
T cruzi repl: inhibitors of intracellular T. cruzi growth, primary screen, luminescence, NIH3T3 host cells | 300,000 tested, 1.4% active | inhibition, % (concentration not given with the values) | T. cruzi beta-gal in NIH3T3, 90 h;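 active means mean inhibition across valid replicates above about 55%, limit read from the data; inconclusive means mean below that limit but half or more replicates reach it; inactive means mean below it, under half of replicates reach it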;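 further: signal also drops with host cell toxicity which is not excluded here; 0% = plate median of DMSO wells and 100% = zero luminescence signal; higher percent means less beta-gal luminescence so fewer parasites; stock transfer was 50 nL into about 50 µL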
rRNA inh HTS: reduced GFP signal of wild-type E. coli, primary screen, bacterial rRNA inhibitor project, GFP/RFP fluorescence, OD600, single point. GFP signal change (wild-type ribosome), % (concentration not given with the values). 350,000 tested, 1.6% active. E. coli WT GFP vs humanized-ribosome RFP mutants, 24 h; hits give low values; DMSO median 0, no signal -100;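 active means significant combined selectivity score with lowered wild-type GFP, culture density cut under 30%, mutant RFP and density less affected; inactive means any of these conditions unmet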; further: one replicate is shown; some compounds called inactive have numbers as strong as hits
Beta apoptosis: inhibitors of cytokine-induced beta cell apoptosis, primary screen, luminescence | INS-1E cytokine-induced death, ATP luminescence, 48 h; percent of positive-control rescue, neutral wells zero | protection from apoptosis, % (no concentration beside the values) | 300,000 tested, 0.8% active;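 active means all replicates at 75% or more, or half of them and the mean; inconclusive means half reach 75% but not the mean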;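 further: 0% = cytokine-treated negative control wells and 100% = positive control rescue; higher means more ATP so stronger rescue from cytokine killing; wells of about 40 µL received 100 nL stock; the first replicate is given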
RanGTP-Imp inh: inhibitors of RanGTP-importin-beta interaction, primary screen, biochemical, FRET, CFP-Ran, YFP-importin-beta, homogeneous. 300,000 tested, 1.1% active. Ran GTPase (GTP-bound) - importin-beta complex. inhibition, % (concentration not given with the values). cell-free CFP-Ran/YFP-importin-beta FRET ratio;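 active means most replicates above 15%; inconclusive means exactly half above 15%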;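 further: 0% = DMSO wells and 100% = Ran loaded with GDP instead of GTP; wells of about 40 µL received 100 nL stock; the first replicate is given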
rRNA inh HTS OD600: second read-out of rRNA inh HTS, no call of its own (marks repeat the call); OD600 change, %; measured here: OD600 growth;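 optical density of the mix in the first replicate; 0 = DMSO median and -100 = no signal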
rRNA inh HTS RFP: further read-out of rRNA inh HTS, marked with its call; RFP signal change, %; measured here: RFP humanized mutant strains;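 first replicate; 0 = DMSO median and -100 = no signal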
* hit, by the source's call; i = inactive; u = inconclusive; x = not tested or not shown; + = active, no number. These rows are one share of the data, so the mix of outcomes need not match the whole.

compound	FGF22 binding	Calb FLC	MLL AF4-AF9 inh	ALR inh	T cruzi repl	rRNA inh HTS	rRNA inh HTS OD600	rRNA inh HTS RFP	Beta apoptosis	RanGTP-Imp inh
Cc1[nH]c2ccccc2c1C(c1ccccn1)N1CCCC1 (stereo not given)	i	4	-0.4	x	1	8	2	-6.6	-3	-2.6
O=C(Nc1nncs1)c1cccc(S(=O)(=O)N2CCc3ccccc32)c1	i	1	2.1	-8	5	-51	-69	-18	-9	1.2
CCn1nc(C)cc1C(=O)NC1CC(C)(C)Cc2c1cnn2-c1cccc(F)c1 (stereo not given)	i	7	-0.2	1	-1	1	5	-0.4	x	-3.6
CN1CCC(=NNC(=O)CN(c2ccccc2)S(=O)(=O)c2ccccc2)CC1	i	2	-1.1	11	1	4	8	-1.5	-3	-1.2
O=C(CN1C(=O)CSc2ccc(S(=O)(=O)N3CCOCC3)cc21)NCc1cccnc1	i	-11	0.6	-1	-8	11	8	-3.9	-6	2.0
COc1ccc(S(=O)(=O)Nc2ccc(N3CCOCC3)cc2)cc1Br	x	0	x	52	7	x	x	x	6	-3.8
CCCC(=O)Nc1ccc(Cc2ccc(NC(=O)CCC)c(C(=O)O)c2)cc1C(=O)O	x	-2	-3.4	0	-3	15	14	0.3	x	5.6
O=S(=O)(NCc1ccco1)N1CCCCCC1	x	-12	x	1	-2	x	x	x	-5	-0.3
CC(=O)NC(CC(=O)OCC(=O)c1c(N)n(CC(C)C)c(=O)n(C)c1=O)c1ccccc1 (stereo not given)	i	-5	-1.4	-1	-3	11	16	-0.1	-1	x
O=C(CCC(=O)c1ccc(Cl)cc1)OCn1nnc2ccccc2c1=O	i	x	0.7	14	x	3	10	-2.6	-8	x

Record cards (already shown). Screens in order: FGF22 binding	Calb FLC	MLL AF4-AF9 inh	ALR inh	T cruzi repl	rRNA inh HTS	rRNA inh HTS OD600	rRNA inh HTS RFP	Beta apoptosis	RanGTP-Imp inh
`O=C(Nc1nncs1)c1cccc(S(=O)(=O)N2CCc3ccccc32)c1` reads i	1	2.1	-8	5	-51	-69	-18	-9	1.2
`O=C(CN1C(=O)CSc2ccc(S(=O)(=O)N3CCOCC3)cc21)NCc1cccnc1` reads i	-11	0.6	-1	-8	11	8	-3.9	-6	2.0
`Cc1[nH]c2ccccc2c1C(c1ccccn1)N1CCCC1` (stereo not given) reads i	4	-0.4	x	1	8	2	-6.6	-3	-2.6
`CC(=O)NC(CC(=O)OCC(=O)c1c(N)n(CC(C)C)c(=O)n(C)c1=O)c1ccccc1` (stereo not given) reads i	-5	-1.4	-1	-3	11	16	-0.1	-1	x

(next part)
compound	FGF22 binding	Calb FLC	MLL AF4-AF9 inh	ALR inh	T cruzi repl	rRNA inh HTS	rRNA inh HTS OD600	rRNA inh HTS RFP	Beta apoptosis	RanGTP-Imp inh
O=C1COc2ccc(C(=O)COC(=O)CNC(=O)C3CCCCC3)cc2N1	i	-11	-0.6	39	-8	14	13	1.5	-2	-0.4
CN1C(=O)C2(OCC(COc3ccc(Cl)cc3)O2)c2ccccc21 (stereo not given)	x	-12	x	-1	8	x	x	x	-4	-1.5
COc1ccccc1N1CCN(c2ccc(-c3ccccc3)nn2)CC1	x	u	x	3	18	x	x	x	38	-1.1
O=C(c1cc2sccc2n1Cc1ccccc1)N1CCCc2ccccc21	x	6	x	-15	30	x	x	x	1	u
COc1ccc(C2N(C(=O)C(F)(F)F)C(C)CN2S(=O)(=O)c2ccc(C)cc2)cc1 (stereo not given)	i	28	-5.5	1	-8	-5	-11	-1.0	-5	2.8
CCOC(=O)c1c(C)[nH]c(C)c1C(=O)CSc1nc(N)cc(=O)[nH]1	x	-13	x	x	-6	x	x	x	-1	7.6
Cc1cc(C)cc(N)c1	i	x	x	8	x	2	4	1.0	-2	x
COc1ccccc1N1CCN(S(=O)(=O)CCNC(=O)C23CC4CC(CC(C4)C2)C3)CC1	i	-3	-3.6	4	5	-34	-59	-0.3	8	0.3
CS/C(=N\S(=O)(=O)c1cccs1)NC(=O)CSc1nc2ccccc2s1	i	-17	-14	98*	-17	-1	10	4.5	1	1.7
Cc1ccc(C2=NN3C(=O)c4ccccc4C3C2)cc1 (stereo not given)	i	8	x	-6	-14	-11	-2	-2.9	-18	3.2
COc1ccccc1CN(Cc1nc2ccccc2c(=O)[nH]1)C(=O)Nc1ccc(C)cc1	i	8	-1.9	-3	8	2	11	-5.3	-2	-0.2
Cc1ccc(S(=O)(=O)N(C)C)cc1NC(=O)COC(=O)/C=C/c1cccs1	x	-14	0.0	0	-9	10	12	1.9	-1	2.3
Cc1c(NC(=O)c2c(F)cccc2F)c(=O)n(-c2ccccc2)n1C	x	10	x	-4	-3	x	x	x	1	-0.5
O=C(O)c1cc(O)ccc1NC(=O)C1CCCO1 (stereo not given)	i	6	-0.8	7	23	13	10	0.3	-3	-0.6
Cc1cc(C)cc(NC(=O)COC(=O)COc2ccc(N(C)S(=O)(=O)c3cccs3)cc2)c1	i	x	-0.6	9	x	x	x	x	1	x
C=C(C)COc1ccc(-c2n[nH]c(C)c2-c2ccccc2OC)c(O)c1	x	u	x	0	1	x	x	x	51	-2.6
CCOC(=O)N1CCC(Nc2c(NCCN3CCN(c4cccc(Cl)c4)CC3)c(=O)c2=O)CC1	i	-2	5.2	0	-10	-3	4	-0.6	-6	0.2
COc1ccc(C(=O)OCC(=O)c2cc(OC)ccc2OC)c(OC)c1	x	20	x	32	12	x	x	x	x	0.0
COc1ccccc1CNC(=O)c1ccc(S(=O)(=O)N2CCCC2)cc1	x	-36	x	-13	-6	x	x	x	-4	-0.9
CCC(CC)C(=O)Nc1c2c(nn1-c1ccc(OC)cc1)CS(=O)(=O)C2	i	-6	9.1	-11	-5	15	1	-2.3	-1	-4.0
Cc1ccc(CSC2=Nc3sccc3C3=NC(=O)CN23)cc1	x	51	x	-6	30	x	x	x	6	3.1
COc1ccc(N(CC(=O)N2CCOCC2)S(C)(=O)=O)cc1	i	3	1.8	-8	-10	8	4	-1.5	-8	5.2
CCCCCCCC(=O)Nc1ccc(C(=O)N/N=C/c2cccc([N+](=O)[O-])c2)cc1	x	-1	x	-4	19	x	x	x	95*	8.6
CC(=O)OCc1c(C(F)(F)F)nn(C)c1Sc1ccccc1	x	-13	x	-8	-9	x	x	x	-11	-4.5
CCc1nc(OCC(=O)c2ccccc2)c(C#N)c2c1COC(C)(C)C2	x	8	x	-3	24	x	x	x	10	1.0
CCOc1ccccc1-n1c(SCC(=O)Nc2ccc(CC)cc2)nc2n[nH]c(C)c2c1=N	x	-2	x	x	36	x	x	x	13	7.4
O=C(C1CCC(CNc2c(N3CCCCC3)c(=O)c2=O)CC1)N1CCCC1 (stereo not given)	i	0	5.6	-3	-6	6	14	2.6	-2	8.8
CC1=NNC(=O)C1C(c1cccc(O)c1)C(C#N)C#N (stereo not given)	i	3	-12	10	-5	-6	1	6.0	-2	-0.7
CN(C)c1ccc(C(=O)OCC(=O)N2CCCC2)cc1	i	5	-3.4	-2	-8	6	7	-1.9	-3	u
CCN(Cc1ccccc1)Cc1nc(CCc2ccccc2)no1	i	6	-6.2	1	2	-4	-12	-2.5	1	1.5
Cc1cc2[nH]c(=O)c(=O)[nH]c2cc1S(=O)(=O)NC1CCC(C)CC1 (stereo not given)	i	25	-4.4	-5	-16	4	3	-1.6	2	3.5
CC1=C(C(=O)NCCN2CCOCC2)C2(CCC(C)CC2)OC1=O (stereo not given)	i	2	7.0	-14	-2	0	12	-9.4	-12	7.7
O=C(Cn1ncc2c1-c1ccccc1OC2)N(Cc1ccco1)C1CCCCC1	i	1	8.2	-11	13	-2	-4	1.2	1	-2.1
Cc1ccc(N(CC(=O)NCCSCc2ccco2)S(=O)(=O)c2ccc(C)cc2)cc1	x	6	x	-6	46	x	x	x	4	-2.9
CC(Oc1ccccc1)C(=O)N1CCN(c2ncccn2)CC1 (stereo not given)	i	x	-0.9	-2	x	1	-12	-1.8	-7	x
COC(=O)c1ccc(NC(=O)Nc2ccc(OC)c(OC)c2)cc1	i	-6	-4.5	-11	-14	3	-4	-1.6	-2	u
COc1ccc(S(=O)(=O)N2CCN(C(=O)CCOc3ccccc3)CC2)cc1OC	i	x	1.6	-1	x	3	6	-0.8	-4	x
CCc1nnc(NC(=O)c2ccc(N(C)S(=O)(=O)c3ccccc3)cc2)s1	x	39	x	-8	1	x	x	x	-4	-6.0
COc1ccccc1/C=C(\NC(=O)c1cccc(C)c1)C(=O)Nc1ccccn1	i	-12	1.4	x	-10	20	12	2.0	6	3.1
C/C(=N\OC(=O)NC1CCCCC1)c1sc(-c2ccccc2)nc1C	x	-7	x	u	58*	x	x	x	11	-2.3
O=C(COC(=O)C1=COCCO1)Nc1ccccc1Oc1ccccc1	x	-25	x	-1	7	x	x	x	-3	-3.5
COc1ccc(-c2nnc(NC(=O)CS(=O)(=O)c3ccc(F)cc3)o2)c(OC)c1	i	7	4.4	3	0	3	1	-1.9	2	0.5
CC1CCCCC1NC(=O)c1cc(S(=O)(=O)N2CCOCC2)ccc1Cl (stereo not given)	i	x	-0.3	-20	x	9	13	-0.7	-1	x
CCN1C(N(C)C)=NC[C@@H]1Cc1ccccc1	i	x	1.7	x	x	8	15	5.8	-3	x
O=C(COc1ccc2ccc(=O)oc2c1)Nc1cccnc1	i	0	0.7	-36	-9	3	5	1.5	-4	-2.4
COc1ccc(-c2cc(=O)oc3cc(OCC(=O)N[C@@H](Cc4c[nH]c5ccccc45)C(=O)O)ccc23)cc1	+	5	-4.1	-2	-12	-7	-5	3.6	-4	2.4
Cc1ccc(S(=O)(=O)Nc2cc(C)nn2-c2ccccc2)cc1	x	58	x	3	-7	x	x	x	-4	1.7
CC(C)(C)C1CC=C2C(C#N)=C(N)C(C#N)(C#N)C(c3cccs3)C2C1 (stereo not given)	x	-5	x	-31	36	x	x	x	-5	-41
COc1ccccc1NC(=O)CCCCCN1C(=O)c2cccc([N+](=O)[O-])c2C1=O	i	-4	0.9	-1	-2	1	-1	-2.1	-6	0.0
Cc1cccc(NC(=S)NNC(=O)c2csc(C)c2)c1	i	0	3.1	85*	-5	-3	-2	0.3	3	2.9
